ALR inh: inhibitors of human sulfhydryl oxidase ALR | P55789 | purified ALR, DTT oxidation, H2O2 HRP-luminol luminescence | inhibition, % (no concentration beside the values) | hit rate 3.8% among 290,000;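 active = mean and each replicate at 75% or more; inconclusive = only one of the two met; inactive = neither met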;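 note: stock transfer was 7.5 nL into about 7.5 µL; 0% = neutral wells and 100% = wells with inactivated enzyme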
Target sequence (P55789 whole entry, looked up): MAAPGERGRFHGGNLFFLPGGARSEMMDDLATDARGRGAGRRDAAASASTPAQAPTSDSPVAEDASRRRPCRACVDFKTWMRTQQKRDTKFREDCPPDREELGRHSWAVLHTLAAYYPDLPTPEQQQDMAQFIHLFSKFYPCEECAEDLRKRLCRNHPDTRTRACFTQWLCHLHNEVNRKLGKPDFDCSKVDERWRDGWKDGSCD
MLL AF4-AF9 inh: MLL-AF4/AF9 protein interaction inhibition | P42568 | hit rate 0.47% among 350,000 | AlphaScreen, biotin-AF4 peptide binding to FLAG-AF9 | inhibition, % at 10 µM;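 active = every replicate reaching a set inhibition limit, whatever the replicate mean, cut at about 25% in these data; inconclusive = mean inhibition reaches that limit but some replicates miss it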;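 note: 0% = plate neutral control median and 100% = total signal loss; the record names both 10 and 1 µM as test concentration; the first replicate is given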
Target sequence (P42568 whole entry, looked up): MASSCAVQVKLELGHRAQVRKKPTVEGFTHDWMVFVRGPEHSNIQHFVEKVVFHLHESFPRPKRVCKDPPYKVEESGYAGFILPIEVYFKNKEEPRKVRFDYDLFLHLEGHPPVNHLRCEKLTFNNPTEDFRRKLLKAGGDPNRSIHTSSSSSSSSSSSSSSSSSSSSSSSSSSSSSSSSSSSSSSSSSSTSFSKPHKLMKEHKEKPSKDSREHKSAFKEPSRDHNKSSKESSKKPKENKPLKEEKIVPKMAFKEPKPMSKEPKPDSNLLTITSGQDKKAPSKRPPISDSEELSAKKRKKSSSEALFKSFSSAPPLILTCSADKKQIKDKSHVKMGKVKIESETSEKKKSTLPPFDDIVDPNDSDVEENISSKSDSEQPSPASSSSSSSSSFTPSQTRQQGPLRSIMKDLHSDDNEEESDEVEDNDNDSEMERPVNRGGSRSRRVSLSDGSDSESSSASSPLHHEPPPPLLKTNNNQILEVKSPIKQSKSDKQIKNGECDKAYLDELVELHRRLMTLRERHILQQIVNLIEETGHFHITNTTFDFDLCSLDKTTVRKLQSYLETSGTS
Beta cell apopt: beta cell apoptosis inhibition; hit rate 0.8% among 300,000; INS-1E cytokine-induced death, ATP luminescence, 48 h; percent of positive-control rescue, neutral wells zero; protection from apoptosis, % (no concentration beside the values);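 active = all replicates at 75% or more, or half of them and the mean; inconclusive = half reach 75% but not the mean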;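 note: 0% = cytokine-treated negative control wells and 100% = positive control rescue; higher means more ATP so stronger rescue from cytokine killing; wells of about 40 µL received 100 nL stock; the first replicate is given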
Ecoli rRNA inh: inhibits bacterial ribosomal RNA function over humanized ribosomes | AID 720706 | hit rate 1.6% among 350,000 | GFP signal change (wild-type ribosome), % (concentration not given with the values) | E. coli WT GFP vs humanized-ribosome RFP mutants, fluorescence, 24 h; hits give low values; DMSO median 0, no signal -100;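 active = significant combined selectivity score with lowered wild-type GFP, culture density cut under 30%, mutant RFP and density less affected; inactive = any of these conditions unmet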; note: one replicate is shown; some compounds called inactive have numbers as strong as hits
RanGTP-Impb inh: inhibitors of RanGTP-importin-beta interaction, primary screen, biochemical, FRET, CFP-Ran, YFP-importin-beta, homogeneous. cell-free CFP-Ran/YFP-importin-beta FRET ratio. inhibition, % (concentration not given with the values). hit rate 1.1% among 300,000;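 active = most replicates above 15%; inconclusive = exactly half above 15%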;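 note: 0% = DMSO wells and 100% = Ran loaded with GDP instead of GTP; wells of about 40 µL received 100 nL stock; the first replicate is given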
T cruzi repl: T. cruzi replication inhibition; inhibition, % (no concentration beside the values); AID 1885; T. cruzi beta-gal in NIH3T3, luminescence, 90 h; hit rate 1.4% among 300,000;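 active = mean inhibition across valid replicates above about 55%, limit read from the data; inconclusive = mean below that limit but half or more replicates reach it; inactive = mean below it, under half of replicates reach it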;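 note: signal also drops with host cell toxicity which is not excluded here; 0% = plate median of DMSO wells and 100% = zero luminescence signal; higher percent means less beta-gal luminescence so fewer parasites; stock transfer was 50 nL into about 50 µL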
FGF22 binding: binders of recombinant human FGF22 by thermal shift; SYPRO orange fluorescence; percent of sucrose octasulfate shift, DMSO zero; calls only at 9.99 µM; hit rate 1.5% among 340,000;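 active = melting point raised past a set limit in the mean and every replicate; inconclusive = no clear call; three in four hits are not shown here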
Target sequence (Q9HCT0 whole entry, looked up): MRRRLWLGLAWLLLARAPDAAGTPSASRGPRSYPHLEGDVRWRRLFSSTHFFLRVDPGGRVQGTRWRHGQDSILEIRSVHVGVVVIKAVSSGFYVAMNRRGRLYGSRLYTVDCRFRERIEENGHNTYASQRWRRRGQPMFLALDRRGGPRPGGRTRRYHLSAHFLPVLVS
Calb FLC: C. albicans growth modulation with fluconazole; growth inhibition, % (concentration not given with the values); hit rate 0.57% among 300,000; AID 1979; C. albicans CaCi-2 (fluconazole-resistant clinical isolate) + fluconazole, Alamar Blue growth, 48 h;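 active = most replicates above 75%; inconclusive = exactly half above 75%; inactive = most below 75%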;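 note: all wells also contain fluconazole at 8 µg/ml as a sub-toxic cotreatment; 0% = median of DMSO wells and 100% = median of geldanamycin control wells; wells of about 8 µL received 7.5 nL stock; the first replicate is given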
Ecoli rRNA inh OD600: recorded beside Ecoli rRNA inh, whose call it bears; OD600 change, %; measured here: OD600 growth;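 optical density of the mix in the first replicate; 0 = DMSO median and -100 = no signal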
Ecoli rRNA inh RFP: also measured in Ecoli rRNA inh; calls as there; RFP signal change, %; measured here: RFP humanized mutant strains;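 first replicate; 0 = DMSO median and -100 = no signal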
The depositor's hits bear a star; i = inactive; ? = inconclusive; . = no result given; + = active, no number.

SMILES	ALR inh	MLL AF4-AF9 inh	Beta cell apopt	Ecoli rRNA inh	Ecoli rRNA inh OD600	Ecoli rRNA inh RFP	RanGTP-Impb inh	T cruzi repl	FGF22 binding	Calb FLC
Cc1ccc(CCNC(=O)CCc2nc3ccccc3[nH]2)cc1	-3	-1.8	-1	-4	-11	-3.7	1.8	-8	i	0
COc1cccc(CNC(=O)C2CCCN(S(=O)(=O)c3c(C)noc3/C=C/N(C)C)C2)c1 (stereo not given)	8	0.8	3	5	-3	-3.2	-3.0	0	i	13
O=C(NC1CCSc2ccccc21)c1cc(S(=O)(=O)N2CCOCC2)ccc1Cl (stereo not given)	1	8.4	7	0	2	1.1	-1.3	5	i	6
O=C(CNC(=O)c1ccco1)OCC(=O)c1ccccc1Cl	.	-1.3	-21	11	11	3.8	0.7	10	i	-11
CCOC(=O)c1ccc(NC(=O)CCOc2ccc(OC)cc2)cc1	2	.	-4	.	.	.	5.0	2	.	-2
Cc1[nH]c2ccccc2c1/C=C(\C#N)C(=O)NCc1ccccc1	-1	-13	3	15	9	48	1.6	3	i	1
COCCn1c(C)cc(C(=O)COC(=O)c2ccccc2Br)c1C	.	9.9	2	-18	-21	0.5	6.0	2	i	24
C=CCc1cccc2cc(C(=O)Nc3cccc(C(=O)O)c3)c(=O)oc12	1	-0.1	2	14	-4	1.5	0.5	-3	i	-8
CCN(CC)S(=O)(=O)c1ccc(C)c(NS(=O)(=O)c2cc(/C=C/C(=O)O)cc(OC)c2OC)c1	-11	-0.1	-4	12	5	-7.7	-1.5	-12	i	3
Cn1c(C(=O)NC2CC2)cc2c(=O)n(C)c3ccccc3c21	-3	-1.2	-1	0	-22	-1.2	4.5	1	i	7
CCOC(=O)Cc1cnc(NC(=O)NC(C(=O)OCC)(c2ccccc2)C(F)(F)F)s1 (stereo not given)	14	.	2	.	.	.	-0.1	-5	.	2
CCOc1ccc(NC(=O)C(C)Sc2nnnn2C)cc1 (stereo not given)	0	.	-2	.	.	.	5.7	-7	.	-3
O=C(OCC(=O)N1CCCCCC1)c1ccc(Br)c(S(=O)(=O)N2CCOCC2)c1	-8	-0.3	1	-5	-10	2.6	.	.	.	.
Cc1cc(C)nc(SC(C)C(=O)N/N=C/c2cccs2)n1 (stereo not given)	-8	.	-5	.	.	.	-2.3	-1	.	18
COc1ccccc1N(CC(=O)NC1CCCCC1)C(=O)Cn1nnc(-c2ccc(C)o2)n1	.	0.3	.	5	9	2.1	?	9	i	-5
NS(=O)(=O)c1cccc(NC(=O)c2cccc3c(Br)cccc23)c1	-10	-0.3	-1	9	4	1.2	-0.3	1	i	-10
COCOc1cc(O)c(C(=O)/C=C/c2ccc(OCOC)c(OCOC)c2)c(OCOC)c1	95*	.	-13	.	.	.	?	-10	.	5
CC(C)C[C@@H](C)C(=O)N(Cc1ccccc1)c1ccccc1	8	-2.0	1	-35*	-17*	1.7*	.	.	i	.
CC(C)COc1ccc(C(=O)OCCN2CCOCC2)c(O)c1	7	.	-2	.	.	.	-0.9	5	.	1
COc1cc(/C=C/C(=O)OCC(=O)Nc2cc(S(=O)(=O)N3CCCC3)ccc2Cl)cc(OC)c1OC	.	6.0	-4	2	7	7.4	.	.	i	.
c1ccc(SCCCCNC2CCCC2)cc1	0	.	-4	.	.	.	-1.0	5	.	-13
Cc1ccc(NC(C)C(=O)N/N=C/c2ccc([N+](=O)[O-])s2)cc1 (stereo not given)	-11	3.3	-15	-22*	-9.2*	-8.1*	6.8	82*	i	23
COc1ccc(CN(C)Cc2cc(=O)oc3cc(C)c(C(C)C)cc23)cc1OC	3	?	-3	.	.	.	7.8	21	i	12
O=C(CN1C(=O)COc2ccc(Cl)cc21)Nc1nccs1	2	-2.9	-7	5	7	-2.9	.	.	i	.
CC1CN(Cc2nc3c(c(=O)n(C)c(=O)n3C)n2CCc2ccccc2)CC(C)O1 (stereo not given)	-8	.	-3	.	.	.	-0.3	9	.	-29
COCCCNC(=O)CCNS(=O)(=O)c1ccc(C)cc1	-1	.	-4	.	.	.	8.7	-14	.	1
O=C(O)c1cccc(Cn2c(Cl)c(/C=N/NC(=O)c3ccc(O)cc3)sc2=O)c1	1	-21	-6	0	2	9.2	-2.7	-7	.	-6
CC(C)c1ccc(NC(=O)c2cc([N+](=O)[O-])ccc2N2CCOCC2)cc1	-1	8.0	-1	2	1	5.7	-0.9	20	i	-21
Cn1nc(C(C)(C)C)c(NC(=O)c2cccs2)c1C(C)(C)C	-3	-0.7	-1	20	4	0.6	-0.3	-11	i	-2
O=S(=O)(c1ccc(N2CCN(Cc3ccc4c(c3)OCO4)CC2)nc1)N1CCOCC1	-2	.	-2	0	-13	2.0	-1.2	14	i	-10
CC1CCN(S(=O)(=O)c2ccc(NC(=O)Cc3cccs3)cc2)CC1	-10	.	4	.	.	.	-0.2	0	.	-15
CCCCNC(=O)Nc1ccccn1	10	.	-8	.	.	.	-0.1	-10	.	-4
Cc1noc(C)c1C(=O)OC(C(=O)NC1CCCC1)c1ccc(F)cc1 (stereo not given)	-28	-94	-7	8	4	-7.3	-0.2	-3	i	7
S=C(Nc1ccc2cn[nH]c2c1)Nc1ccccc1Cl	10	.	0	.	.	.	2.6	1	.	-2
COc1ccc(-c2ccc3c(c2)c(C#Cc2ccsc2)c(-c2cc(OC)cc(OC)c2)n3C)cc1	-7	-2.0	-2	-7	-7	-3.1	.	.	i	.
CCOc1ccccc1CNC(=O)C(C)n1nc(C)c2c(C)n(-c3ccccc3)nc2c1=O (stereo not given)	1	0.0	10	0	-4	1.1	-0.5	4	i	-1
CCCN(CCC)C(=O)Cn1c(=O)n(CCCCC(=O)NCc2ccco2)c(=O)c2ccccc21	-4	.	-6	.	.	.	-2.8	7	.	2
COc1nc(N)nc(N)c1NS(=O)(=O)c1ccc(C)cc1	8	-2.1	-3	9	12	2.5	-2.8	-13	i	-4
Cc1ccccc1NC(=O)c1sc2nc3c(c(-c4ccco4)c2c1N)CCC3	30	.	4	.	.	.	-2.4	37	.	25
Cc1cc(S(=O)(=O)N2CCCC(N(C)CCc3ccccn3)C2)c(C)s1 (stereo not given)	-7	2.9	.	4	-3	0.8	-2.0	24	i	-22
COc1ccc(NC(=O)COC(=O)COc2cccc3c2OC(C)(C)C3)cc1	-1	-2.3	-1	12	9	0.9	1.2	-5	i	3
CC(C)c1c(C(=O)N/N=C/c2c[nH]c3ccccc23)nnn1-c1nonc1N	20	6.2	-5	-18*	-12*	5.8*	3.9	-4	+	2
O=C(NCCc1c[nH]c2ccccc12)c1ccc2[nH]c(=O)c(=O)[nH]c2c1	.	3.8	.	5	14	0.1	4.9	-5	i	13
Cn1c(=O)[nH]c(=O)c2c1ncn2CCCc1ccccc1	-9	.	-2	.	.	.	-2.0	-15	.	?
Nc1ccc(S(=O)(=O)NC2(C(F)(F)F)NC(=O)N(c3ccc(F)cc3)C2=O)cc1 (stereo not given)	-2	-5.9	-6	7	17	-1.5	3.8	-1	i	-13
CCOc1cc(C(=S)N2CCCC2)ccc1OCc1ccccc1	-15	2.4	-8	-14	-9	-1.4	1.8	6	i	9
COc1ccc(C(CNC(=O)c2cccc(NS(=O)(=O)c3ccc(C)c(F)c3)c2)N2CCOCC2)cc1 (stereo not given)	-15	-1.2	1	-5	-5	5.7	-1.9	0	i	1
COc1ccc(NC(=S)N2N=CCC2c2ccccc2)cc1 (stereo not given)	-12	.	-2	.	.	.	1.5	-22	.	-6
Cc1c(Cl)cccc1NC(=S)N(Cc1ccco1)C(C)c1ccccn1 (stereo not given)	.	5.2	-5	0	-2	-5.9	4.9	-4	i	14
Cc1nnc(SC(C)C(=O)Nc2ccc3ccccc3c2)n1C (stereo not given)	-11	-6.9	1	7	12	3.0	.	.	i	.
COc1ccc(-c2csc(/C=C/c3ccc4c(c3)OCO4)n2)cc1OC	.	.	-5	.	.	.	7.3	-4	.	1
CCn1c(=O)c(C(=O)NC(C)C)c(O)c2ccccc21	-1	.	1	.	.	.	0.0	1	.	-3
COc1ccc(Nc2ncc(C#N)c(N)n2)c(OC)c1	-35	-5.1	-3	9	2	-0.1	1.3	-1	i	-7
CCn1c(CC(=O)Nc2ccccc2C)nnc1SCC(=O)NC1CCCC1	0	-9.9	2	8	8	-0.8	0.1	3	i	6
Cc1cc(C)n2c(Nc3ccc4c(c3)OCCO4)c(-c3ccccc3)nc2n1	67	.	-7	.	.	.	-1.6	4	.	-1
COc1ccc(CC(C)N2CCN(Cc3ccccc3)CC2)cc1OC (stereo not given)	-5	.	1	.	.	.	2.3	6	.	-9
COc1ccc2cc(C(=O)c3ccccc3)c(=O)oc2c1	-2	.	5	.	.	.	-3.7	-7	.	-6
COc1ccccc1NC(=O)N[C@@H](Cc1c[nH]c2ccccc12)C(=O)NN	-3	-2.2	-3	-1	-4	-0.4	2.6	-11	i	-4
CCCCn1c(N)c(N(CC)C(=O)c2cccc(S(=O)(=O)N3CCCc4ccccc43)c2)c(=O)[nH]c1=O	-10	-0.2	.	-6	-12	-1.2	-0.7	0	i	-2
Cc1cc(C(=O)OCC(=O)NCc2ccc(F)cc2)c2ccccc2n1	.	0.1	-5	2	0	1.3	.	.	i	.
More entries
SMILES	ALR inh	MLL AF4-AF9 inh	Beta cell apopt	Ecoli rRNA inh	Ecoli rRNA inh OD600	Ecoli rRNA inh RFP	RanGTP-Impb inh	T cruzi repl	FGF22 binding	Calb FLC
OC(CNCCc1ccc(Cl)cc1)COCc1ccco1 (stereo not given)	-8	.	-3	.	.	.	1.9	47	.	-4
CCCc1cc(=O)oc2c3c(cc(OCC(=O)NCc4ccncc4)c12)OC(C)(C)CC3	-5	3.5	0	.	.	.	-0.7	45	i	9
COc1ccccc1N1CCN(S(=O)(=O)CCNC(=O)c2ccc(Br)o2)CC1	20	-1.1	0	2	-23	2.9	-3.5	-1	i	0
CCOC(=O)Cn1c(=O)oc2cc(S(=O)(=O)N(C)Cc3ccccc3)ccc21	-12	2.7	-4	13	9	-1.4	2.1	-7	i	-4
CCOC(=O)c1cc(C)sc1NC(=S)Nc1ccccc1	-1	.	0	.	.	.	1.3	-7	.	1
CC(=O)N1CCCc2cc(S(=O)(=O)N3CCCC(C)C3)ccc21 (stereo not given)	-1	1.3	-5	5	7	-1.1	1.1	-1	i	7
CCOC(=O)c1sc(NC(=O)CCN2CCN(C)CC2)c(C(=O)OCC)c1C	10	2.5	-7	10	5	3.0	0.6	11	.	-14
Cc1ccc(NC(=O)c2sccc2C)cc1S(=O)(=O)N(C)C	7	.	-7	.	.	.	1.6	-2	.	?
CS(=O)(=O)N(CC(=O)N1CCCC1)c1ccc2c(c1)OCCO2	-3	-13	-5	15	12	-8.4	7.5	-2	i	16
O=C(O)C1[C@H]2C(=O)N(Cc3cccs3)C[C@]23C=C[C@H]1O3 (stereo not given in full)	-5	.	-2	.	.	.	-6.5	-14	.	10

Bioassay records: PubChem BioAssay, Broad Institute

Not all compounds are listed (hit frequency here may not be typical).
